ALR H2O2 inh = inhibitors of human sulfhydryl oxidase ALR; P55789; purified ALR, DTT oxidation, H2O2 HRP-luminol luminescence; inhibition, % (concentration not given with the values); 290,000 tested, 3.8% active; AID 485317;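 active = mean and each replicate at 75% or more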;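 also: stock transfer was 7.5 nL into about 7.5 µL; 0% = neutral wells and 100% = wells with inactivated enzyme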
UCH37 inh = inhibitors of human deubiquitinating enzyme UCH37. 330,000 tested, 0.33% active. purified proteasome/UCH37, Ub-AMC cleavage fluorescence. inhibition, % (test concentration not listed). Q9Y5K5. AID 588478;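 active = mean of two replicates above 20%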;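 also: 0% = compound-free wells with enzyme and 100% = wells lacking proteasome; stock transfer was 100 nL into about 20 µL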
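Material: human UCH37 enzyme supplied as purified proteasome complex. Measure: % inhibition of Ub-AMC cleavage fluorescence. Medium: pH 7.4 Tris-HCl (50 mM) with ovalbumin, ATP-MgCl2, DTT. Times: 30 min preincubation with enzyme, 25 min cleavage at room temperature. Detection: AMC fluorescence intensity at 355/460 nm.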
LANA-H2B inh = blocks KSHV LANA binding to histone H2A/H2B; Q9QR71; cell-free LANA-H2A/H2B peptide, fluorescence polarization; inhibition, % (test concentration not listed); 320,000 tested, 0.6% active; AID 2629; in the data active = inhibition mostly above about 10%, no sharp cut-off; inactive = mostly below about 6.7%;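 also: stock transfer was 7.5 nL into about 10 µL; 0% = median of vehicle wells and 100% = median of positive control wells; one replicate is shown; the record names a cut of 25% in any replicate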
E coli growth = inhibitors of Escherichia coli growth. OD600, 23 h; active compounds read low. AID 1053175. 330,000 tested, 0.21% active. OD600 absorbance (no concentration beside the values);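 active = OD600 absorbance below the run mean of sample wells minus 3.6 SD, in any replicate, cut at about 0.56 in these data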;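 also: stock transfer was 300 nL into about 60 µL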
HNF4A DNA FP = change in binding of human HNF4 alpha to DNA | P41235 | HNF4a-FITC DNA binding, fluorescence polarization, 1 h | activity change, % at 10 µM | 360,000 tested, 0.3% active | AID 1224865; in the data active = activity change above about 30%, passing the limit was not always enough;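 also: controls were the assay level and a saturating level of protein; the project sought stronger binding though the title names inhibitors; some compounds called inactive have numbers as strong as hits; positive values seem to mean higher polarization but the record does not say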
Target sequence (P41235 whole entry, looked up): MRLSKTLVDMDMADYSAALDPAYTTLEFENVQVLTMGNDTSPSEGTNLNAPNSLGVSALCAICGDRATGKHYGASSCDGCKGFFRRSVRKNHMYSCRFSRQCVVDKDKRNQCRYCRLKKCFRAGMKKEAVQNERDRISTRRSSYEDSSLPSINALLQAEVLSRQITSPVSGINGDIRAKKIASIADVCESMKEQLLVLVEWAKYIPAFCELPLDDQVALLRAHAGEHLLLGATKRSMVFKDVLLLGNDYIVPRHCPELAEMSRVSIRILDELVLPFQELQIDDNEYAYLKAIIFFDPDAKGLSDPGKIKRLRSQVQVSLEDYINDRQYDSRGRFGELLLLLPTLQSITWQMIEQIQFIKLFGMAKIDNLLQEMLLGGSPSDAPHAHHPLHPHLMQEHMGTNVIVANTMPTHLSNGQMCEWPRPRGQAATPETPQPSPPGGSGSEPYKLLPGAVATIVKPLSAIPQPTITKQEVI
FGF22 binding = shifts melting point of recombinant human FGF22. Q9HCT0. recombinant FGF22 thermal shift, SYPRO orange fluorescence; percent of sucrose octasulfate shift, DMSO zero. calls only at 9.99 µM. 340,000 tested, 1.5% active. AID 651658;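 active = melting point raised past a set limit in the mean and every replicate; three in four hits are not shown here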
Target sequence (Q9HCT0 whole entry, looked up): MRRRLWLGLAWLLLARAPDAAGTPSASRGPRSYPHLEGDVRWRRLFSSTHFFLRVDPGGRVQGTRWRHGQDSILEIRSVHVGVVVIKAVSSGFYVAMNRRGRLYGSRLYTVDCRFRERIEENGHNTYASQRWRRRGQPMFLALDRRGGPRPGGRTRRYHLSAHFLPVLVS
B2AR ag = agonists of human beta-2 adrenergic receptor inducing internalization; 340,000 tested, 0.43% active; response, % (concentration not given with the values); Am2.2-beta2AR cells, FAP receptor internalization, flow cytometry; reference of the scale not given here;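 active = response above a set limit, near 3 SD of response in nonfluorescent compounds, cut at about 42% in these data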;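 also: stock transfer was 100 nL into about 11 µL; a reference agonist was the positive control; negative values mostly stem from fluorescent compounds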
Target sequence (P07550 whole entry, looked up): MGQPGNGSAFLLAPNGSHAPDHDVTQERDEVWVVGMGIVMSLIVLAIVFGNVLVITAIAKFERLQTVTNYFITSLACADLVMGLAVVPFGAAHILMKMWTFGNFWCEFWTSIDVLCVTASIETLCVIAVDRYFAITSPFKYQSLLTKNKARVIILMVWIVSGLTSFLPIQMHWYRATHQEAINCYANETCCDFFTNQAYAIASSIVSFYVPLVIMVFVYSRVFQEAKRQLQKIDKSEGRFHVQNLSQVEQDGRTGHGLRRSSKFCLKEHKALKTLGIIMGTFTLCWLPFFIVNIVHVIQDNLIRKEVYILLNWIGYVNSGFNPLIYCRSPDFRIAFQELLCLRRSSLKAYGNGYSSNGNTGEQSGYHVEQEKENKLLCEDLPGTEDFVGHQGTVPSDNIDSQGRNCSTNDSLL
The depositor's hits bear a star; i = inactive; / = not tested or not shown; + = active, no number. The list is partial. The share of hits here may be higher or lower than overall.

ALR H2O2 inh	UCH37 inh	LANA-H2B inh	E coli growth	HNF4A DNA FP	FGF22 binding	B2AR ag	Structure
-6	0.5	-2.6	0.72	-0.8	/	3	COc1cccc(C(=O)Nc2ccc(NC(=O)C(C)C)nc2)c1
-9	1.2	2.9	0.72	2.1	/	-2	COCCC(=O)N(Cc1ccc2c(c1)OCO2)C(C(=O)NC1CCCCC1)c1ccncc1 (stereo unspecified)
-3	-1.2	4.2	0.69	6.3	i	-5	CCOc1ccc(N(CC(=O)Nc2c(C)n(C)n(-c3ccccc3)c2=O)S(=O)(=O)c2ccccc2)cc1
-8	1.1	2.1	0.69	3.1	i	5	CC(C)OC1(c2ccccc2)OC(=O)c2ccccc21 (stereo unspecified)
/	1.9	5.4	0.71	-1.9	i	4	COc1ccc(C(=O)NNC(=O)CCC(=O)NNC(=O)c2ccc(OC)cc2)cc1
/	0.3	/	0.71	-0.3	i	-8	CC(C)(C)[C@H]1COC(=O)CCCC/C=C\C[C@H](CC(=O)N(CCO)Cc2ccccc2)C(=O)N1
-18	/	-6.2	/	6.6	i	-12	Cc1nc2cc3nc(C(F)(F)F)[nH]c3cc2[nH]1
/	-5.5	-2.1	0.69	2.0	i	3	O=C(Nc1ccc(Br)cc1)c1cc(-c2cccs2)on1
/	-0.1	/	0.67	-4.1	i	-3	CN(C(=O)c1cccc(NC(=O)Cc2ccc(NC(=O)C3CCCN(C(=O)C4CC4)C3)cc2)c1)C1CC1 (stereo unspecified)
-2	3.7	-4.4	0.68	-0.4	/	3	c1ccc(Cn2nnnc2CN2CCCC2)cc1
-7	/	-3.5	/	-0.5	i	-6	COc1ccc(C(=O)N/N=C/c2ccc(OC(=O)c3cccs3)cc2)cc1
4	-26	-3.2	0.72	4.7	i	-20	CSc1nc(-c2ccc(N(C)C)cc2)c(C#N)c(=O)n1C
5	6.1	-5.8	0.7	1.1	i	0	CCc1nc(N2CCCCC2C(=O)O)c2oc3ccccc3c2n1 (stereo unspecified)
-9	-1.8	2.4	0.69	-3.0	i	-1	CCOCCCNC(=O)CCc1ccc(-n2cnc3cccnc32)cc1
-3	-4.6	2.1	0.81	-1.1	/	7	Cc1ccc(-c2c3c(=O)n(C)c(=O)n(C)c3cn2CCCN2CCOCC2)cc1
-9	3.4	5.1	0.72	1.6	/	0	Cn1ncc(N=Cc2c(O)ccc3ccccc23)c1C(=O)N1CCOCC1
11	5.4	4.4	0.72	2.5	i	0	CC1=NN(C(=O)c2ccccc2)C(O)(c2ccc(Br)cc2)C1 (stereo unspecified)
0	0.6	-2.3	0.66	1.2	i	0	CCOc1ccc(NC(=O)COc2ccccc2C(=O)NCc2ccccc2)cc1
/	1.9	-1.1	0.7	1.1	i	-5	CCc1nc(SCC(=O)NCCc2ccccc2)c2c(=O)n(C)c(=O)n(C)c2n1
28	/	-5.3	/	-3.1	i	8	CCC1CCC/C1=N\NC(=O)c1cc(C)[nH]n1 (stereo unspecified)

Single entries from the list.
CCc1nc(N2CCCCC2C(=O)O)c2oc3ccccc3c2n1 (stereo unspecified) – LANA-H2B inh = -5.8
COc1cccc(C(=O)Nc2ccc(NC(=O)C(C)C)nc2)c1 – ALR H2O2 inh = -6
CN(C(=O)c1cccc(NC(=O)Cc2ccc(NC(=O)C3CCCN(C(=O)C4CC4)C3)cc2)c1)C1CC1 (stereo unspecified) – E coli growth = 0.67
Cc1nc2cc3nc(C(F)(F)F)[nH]c3cc2[nH]1 – HNF4A DNA FP = 6.6
COc1ccc(C(=O)N/N=C/c2ccc(OC(=O)c3cccs3)cc2)cc1 – ALR H2O2 inh = -7

The results go on.
ALR H2O2 inh	UCH37 inh	LANA-H2B inh	E coli growth	HNF4A DNA FP	FGF22 binding	B2AR ag	Structure
-8	0.2	-2.3	0.67	5.8	i	-2	Cc1cccc(CC(=O)NC2CCCCCC2)c1
68	-0.1	2.7	0.73	2.2	/	-1	CCn1c(C)nc2cc(S(=O)(=O)N3CCCC3)ccc21
-7	4.9	1.3	0.66	-1.4	i	0	CC(=O)c1ccc(NC(=O)c2sc3nc4n(c(=O)c3c2C)CCCCC4)cc1
91*	4.2	-1.7	0.7	-0.2	i	11	C=CCOc1cccc(C(=O)N2CCCC(Nc3ccc4c(c3)OCCO4)C2)c1 (stereo unspecified)
-31	4.0	9.7	0.66	9.9	/	-6	COc1ccc(OC)c(NC(=O)Nc2cc(C(=O)O)ccc2C)c1
-18	-6.9	0.4	0.76	-0.7	/	7	CC(NC(=O)c1ccc(F)cc1)c1ccccc1 (stereo unspecified)
-1	4.2	-1.0	0.68	-1.7	/	-9	CCOC(=O)C1=C(C)NC(=S)NC1/C=C/c1ccccc1 (stereo unspecified)
/	3.5	4.2	0.59	0.0	i	13	Cc1cccc(OCC(=O)N(Cc2ccc(N(C)C)cc2)C2CCS(=O)(=O)C2)c1 (stereo unspecified)
1	2.7	5.3	0.69	-1.6	/	4	CC1(c2ccccc2)NC(=O)N(CC(=O)NCCC2=CCCCC2)C1=O (stereo unspecified)
-7	1.1	1.3	0.77	-0.2	i	8	c1ccc(C[C@H]2CN=C(Nc3ccccc3)N2CCCC2CCCCC2)cc1
-5	/	-3.7	/	1.8	i	4	Cc1cccc(OC(C)C(=O)Nc2ccccc2C(=O)N2CCCCC2)c1 (stereo unspecified)
31	/	-22	/	-5.0	/	-33	O=C(O)c1ccccc1-c1ccc(/C=c2\sc3nc4cc(Br)cnc4n3c2=O)o1
-22	2.0	0.8	0.68	-0.2	i	-16	Cc1ccc(C(=O)COC(=O)c2cn(-c3ccccc3)nc2-c2ccccc2)cc1[N+](=O)[O-]
3	-1.4	3.1	0.7	-0.3	i	2	COc1ccc(CCNC(=O)c2ccccc2NS(=O)(=O)c2c(F)cccc2F)cc1
-80	-0.8	-4.0	0.62	-1.1	i	5	COc1ccc(C(CNC(=O)c2cc3ccccc3cc2O)N2CCOCC2)cc1 (stereo unspecified)
0	3.2	-0.7	/	-0.5	i	-16	CCO[C@H]1OC(C(=O)N2CCOCC2)=C[C@@H](c2coc3ccccc3c2=O)[C@@H]1CCCO
-20	1.6	5.3	0.69	0.4	/	0	CC(C(=O)Nc1cccc([N+](=O)[O-])c1)n1nnc2ccccc21 (stereo unspecified)
-3	1.2	3.9	0.62	1.5	i	-2	O=C(c1ccccc1F)N1CCOCC1
-2	1.6	-7.2	0.69	0.6	i	14	CC(=O)c1cccc(NS(=O)(=O)c2cc(-c3cnc(C4CC4)o3)ccc2C)c1
4	1.9	0.6	0.7	-2.4	/	13	COc1ccc(Nc2ncnc3c2cnn3Cc2ccc(C)cc2)cc1
-31	3.9	4.8	0.7	-5.3	i	1	O=[N+]([O-])c1ccc2c(c1)OCCOCCOCCOCCOCCOCCO2
64	12	8.8	0.7	-77	+	2	O=C(O)C1Nc2c(O)cc(Cl)c([N+](=O)[O-])c2C2C=CCC12 (stereo unspecified)
-9	2.1	-2.0	0.67	-1.4	i	7	C=CCN1C(=O)c2ccccc2Sc2ccc(C(=O)NCCC)cc21
-4	1.6	-2.1	0.68	-1.6	i	0	COCC(=O)OCC(=O)Nc1cc(C)c(C)cc1[N+](=O)[O-]
6	/	1.4	/	1.4	/	-8	Cc1ccsc1/C=N/Nc1nc(Cl)c(Cl)cc1Cl
10	13	-160	0.46*	107*	/	-47	CCN1/C(=C/c2ccc3cccc(C)c3[n+]2CC)Sc2ccccc21
/	2.8	/	0.68	-2.2	i	-2	CN(C(=O)c1cccc(NC(=O)Cc2cccc(NC(=O)C3CCCN(C(=O)C4CCC4)C3)c2)c1)C1CC1 (stereo unspecified)
-10	-2.5	-2.7	0.7	1.4	i	14	CCOC(=O)C(=O)Nc1cc(C)nn1-c1nc2ccccc2[nH]1
/	-1.8	/	0.59	4.2	i	16	Cc1cc(C)nc(N2CCC(C(=O)NCC3CCCCC3)CC2)n1
4	-13	-7.7	0.7	2.4	i	3	CCCc1cc(=O)oc2c(C)c(OCC(=O)Nc3ccc(CN4CCOCC4)cc3)ccc12

E coli growth, entries above that show a hit.
ALR H2O2 inh	UCH37 inh	LANA-H2B inh	E coli growth	HNF4A DNA FP	FGF22 binding	B2AR ag	Structure
10	13	-160	0.46*	107*	/	-47	CCN1/C(=C/c2ccc3cccc(C)c3[n+]2CC)Sc2ccccc21

(listing goes on)
ALR H2O2 inh	UCH37 inh	LANA-H2B inh	E coli growth	HNF4A DNA FP	FGF22 binding	B2AR ag	Structure
20	-0.3	0.2	0.81	-2.2	i	-3	O=c1ccc2cc([N+](=O)[O-])c(CCO)cc2o1
-1	1.0	-1.5	0.69	1.7	i	2	COC(=O)CNC(=O)C(NC(=O)OCc1ccccc1)C(C)C (stereo unspecified)
-3	-0.4	3.0	0.7	0.6	i	-2	Nc1nc(NC(=O)c2ccc(Cl)cc2)nn1-c1ccccc1
/	4.8	1.8	0.72	-1.6	i	-6	C[C@H](CO)N1C[C@H](C)[C@@H](CN(C)Cc2ccc(C(=O)O)cc2)Oc2c(NS(=O)(=O)c3cccs3)cccc2C1=O
43	-2.3	0.9	0.73	-3.7	/	8	COc1ccc(N2CCN(C(=O)CCCN3C(=O)c4cccc5cccc(c45)C3=O)CC2)cc1
-1	1.2	-2.9	0.68	4.5	i	5	COc1ccc(CCN=C(N)NS(=O)(=O)c2ccccc2)cc1
/	-33	/	0.69	3.7	/	-10	COc1ccc(NC(=O)C(C)Sc2nnc3c4c(nc(-c5ccc(OC)cc5)n23)CC(C)(C)OC4)cc1 (stereo unspecified)
97*	/	-1.7	/	/	i	/	Cc1nc(N/N=C/c2ccccn2)sc1C
-7	0.8	-1.0	0.67	-2.2	/	-1	CNC(=O)C(=O)NCC1OCCCN1S(=O)(=O)c1cccs1 (stereo unspecified)
-13	0.9	2.7	0.67	-1.2	/	-1	O=C(Cn1ncc2c(=O)oc3ccccc3c21)N1CCN(C(=O)c2ccco2)CC1
-1	-7.6	0.0	0.68	3.6	i	1	c1csc(CNc2ncnc3ccc(-c4ccc5c(c4)OCCO5)cc23)c1
0	1.3	-1.4	0.71	1.3	i	-1	Cc1nc(SCC(=O)NC(C)(C)C)c2c(-c3cccs3)csc2n1
28	7.6	-2.1	0.68	0.0	i	28	COc1cc(/C=C2\COC/C(=C\c3ccc(O)c(OC)c3)C2=O)ccc1O
-4	1.3	-4.4	0.67	-2.5	i	3	CC[n+]1c(C)n(C)c2cc(S(=O)(=O)N(C)C)ccc21
-9	/	-0.6	/	4.7	i	-13	CNC(=S)N/N=C/c1c2ccccc2c(Cl)c2ccccc12
7	/	4.1	/	-4.0	i	3	O=C(O)COc1ccccc1/C=N/NC(=O)CSc1nc2ccccc2c(=O)n1-c1ccccc1
2	0.4	1.1	0.7	-2.3	/	-1	Cc1nn(-c2ccccc2)c(-n2cccc2)c1C(=O)O
3	0.8	3.2	0.7	-1.4	/	-16	Cn1c(SCC(=O)N(C2CCCCC2)C2CCCCC2)nnc1-c1cccs1
-1	0.6	4.1	0.79	1.9	i	-1	CCO[C@@H]1OC(C(N)=O)=C[C@H](c2ccc(Br)cc2)[C@H]1CCCO
-1	0.4	2.7	0.69	-1.7	/	-13	Cc1cc(NC(=O)c2ccco2)ccc1NC(=O)Cc1cccs1
2	-1.3	0.9	0.71	-0.9	/	0	S=c1[nH]nc(-c2cccc(Cl)c2)n1Cc1ccccc1
-3	0.0	0.3	0.72	3.6	i	-1	CCOc1ccc(NC(=O)CCN2C(=S)NC(C)(C)CC2C)cc1 (stereo unspecified)
5	-0.2	-0.8	0.78	0.5	/	-5	O=C(CSc1nnc(-c2ccc(Cl)cc2Cl)n1C1CCCCC1)N1CCCC1
-2	-57	-4.7	0.71	25	i	-6	O=C(Nc1ccc(-c2nc3ccccc3[nH]2)cc1)c1ccc2c(c1)OCO2
/	i	/	0.69	2.9	i	2	OC[C@@H]1[C@@H](c2ccccc2)C(c2ccccc2)=NN1c1ccccc1
0	4.8	-6.0	/	-0.4	i	-3	CCN1C(=O)[C@H]2[C@@H](c3ccc(C)cc3)N3C(=O)N(c4cccc(C)c4)C(=O)[C@@]3(Cc3ccccc3)[C@H]2C1=O

Screens: PubChem BioAssay, several laboratories
